KAT2A inh: blocks human GCN5L2 histone acetyltransferase | Q92830 | GCN5L2 HAT assay, ThioGlo1 CoA-SH fluorescence | Potency, µM (doses to about 58.9 µM), inactives show at the top dose activity change, negative = inhibition, usual class: inhibitors | 390,000 tested, 0.21% active | AID 504327
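GCN5L2 (20nM final) in 50mM HEPES, 0.1mM EDTA pH 7.5, 0.01% Tween-20 was preincubated 15 min at room temperature with compound, then given ThioGlo1 (50uM), H3(1-25) peptide (75uM) and acetyl-CoA (70uM); CoA-thiol fluorescence (Ex340/Em540) was read at 0 and 20 min.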
FEN1 inh: human FEN1 inhibition; P39748; Recombinant FEN1 flap cleavage, fluorescence, 15 min; Potency, µM (titrated, usually from 114 µM), for inactives: at the highest dose activity change, negative = inhibition, most hits filed as inhibitors; 390,000 tested, 0.35% active; also: nearly all actives have a fitted effect of over 65% in size
Target sequence (P39748 whole entry, looked up): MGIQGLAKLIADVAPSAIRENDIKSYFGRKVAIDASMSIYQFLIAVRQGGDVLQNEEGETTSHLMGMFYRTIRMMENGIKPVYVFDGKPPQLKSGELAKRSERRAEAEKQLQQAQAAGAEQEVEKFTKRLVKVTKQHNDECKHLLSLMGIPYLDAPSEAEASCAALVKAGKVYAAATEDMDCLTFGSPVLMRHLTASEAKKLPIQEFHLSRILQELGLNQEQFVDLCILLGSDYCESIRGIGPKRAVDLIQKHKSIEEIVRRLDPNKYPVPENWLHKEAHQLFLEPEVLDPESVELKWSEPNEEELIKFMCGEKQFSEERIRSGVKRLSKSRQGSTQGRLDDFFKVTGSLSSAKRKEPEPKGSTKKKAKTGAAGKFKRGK
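Concentration–response screening of FEN1 (10 nM): 15 min compound preincubation at room temperature, reaction started with 50 nM substrate and read at 0 and 15 min. Corrected, normalized data were fitted by a four-parameter Hill equation.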
The depositor's hits bear a star; ? = inconclusive; nt = no result given; & = joins results of further samples; ! = a repeat was not active; [ ] = another dose, or the depositor's remark. Calls follow the shape of the dose curve; as a rule, active = well fitted curve in the direction sought with a large enough effect; inconclusive = small, poorly fitted or top-dose-only effect, or another doubt; inactive = no such curve, though single readings can be large; an effect the other way counts as inactive or inconclusive. % is scaled to controls: 0 for no effect and ±100 for the full control effect; potency is read from the fitted curve at half-maximal effect. These rows are one share of the data; most or all hits stand in other tables.

Preview, 17 compounds:
nr	compound	KAT2A inh	FEN1 inh
1	Cc1ccc(S(=O)(=O)NCCC(=O)Nc2ccc(Cl)cc2C(=O)c2ccccc2)cc1	0%	-12%
2	CCN1C(=O)C(=Cc2c(C)n(CC(=O)NCC3CCCO3)c3ccccc23)C(=O)N(CC)C1=S (stereo unspecified)	-9%	-19%
3	CCOC(=O)C(O)(c1ccc(NC(=O)Oc2ccccc2)cc1)C(F)(F)F (stereo unspecified)	1%	-5%
4	Cc1cccc(C(=O)Nc2ccc3c(c2)CC2(C(=O)N(C)C(=O)N(C)C2=O)C2CCCN32)c1 (stereo unspecified)	?	-22%
5	COc1cc2c3c(c1OC)-c1cc(O)ccc1CC3NCC2 (stereo unspecified)	2%	0%
6	COc1ccccc1N1CCNCC1	-15%&0%&-14%&-10%	-12%
7	OC(c1ccccc1)(c1ccccc1)C1CCNCC1	-5%	-1%
8	CC1(C)Cc2c(C#N)c(N3CCNCC3)nc(-c3ccco3)c2CS1	-1%	0%
9	CC[C@H]1CN2CCC1C[C@H]2[C@H](O)c1ccnc2ccc(OC)cc12 (stereo partly specified)	0%	-3%
10	O=C(CNC1CCCCC1)N1CCC2(CC1)OCCO2	0%	0%
11	CCN1C[C@]2(C)CCC(OC)[C@@]34C5C[C@@H]6CC[C@@](O)(C5C(=O)O6)[C@@H](C(O)C23)[C@@H]14 (stereo partly specified)	-1%	nt
12	CCN(CC)P(c1n(C)cc[n+]1C)N(CC)CC	-8%	-12%
13	CCOC(=O)c1c(/N=C/C2C(=O)NC(=O)NC2=O)sc2c1CCC2	1%	2%
14	COc1cc(C(=O)NC(=S)N2C[C@H]3C[C@H](C2)c2cccc(=O)n2C3)cc(OC)c1OC	-3%	10%
15	C=CCn1c(O)c(C(CC)=NCc2ccc3c(c2)OCO3)c(=O)[nH]c1=O	-2%	-21%
16	C[N+]1(C)CCOC(O)(c2ccc(-c3ccc(C4(O)C[N+](C)(C)CCO4)cc3)cc2)C1 (stereo unspecified)	-2%&-8%&2%	?
17	CN1C2CCC1CC(OC(=O)c1ccc(Cl)cc1)C2 (stereo unspecified)	-10%	1%

The listing, previewed entries included:
nr	compound	KAT2A inh	FEN1 inh
1	Cc1ccc(S(=O)(=O)NCCC(=O)Nc2ccc(Cl)cc2C(=O)c2ccccc2)cc1	0%	-12%
2	CCN1C(=O)C(=Cc2c(C)n(CC(=O)NCC3CCCO3)c3ccccc23)C(=O)N(CC)C1=S (stereo unspecified)	-9%	-19%
3	CCOC(=O)C(O)(c1ccc(NC(=O)Oc2ccccc2)cc1)C(F)(F)F (stereo unspecified)	1%	-5%
4	Cc1cccc(C(=O)Nc2ccc3c(c2)CC2(C(=O)N(C)C(=O)N(C)C2=O)C2CCCN32)c1 (stereo unspecified)	?	-22%
5	COc1cc2c3c(c1OC)-c1cc(O)ccc1CC3NCC2 (stereo unspecified)	2%	0%
6	COc1ccccc1N1CCNCC1	-15%&0%&-14%&-10%	-12%
7	OC(c1ccccc1)(c1ccccc1)C1CCNCC1	-5%	-1%
8	CC1(C)Cc2c(C#N)c(N3CCNCC3)nc(-c3ccco3)c2CS1	-1%	0%
9	CC[C@H]1CN2CCC1C[C@H]2[C@H](O)c1ccnc2ccc(OC)cc12 (stereo partly specified)	0%	-3%
10	O=C(CNC1CCCCC1)N1CCC2(CC1)OCCO2	0%	0%
11	CCN1C[C@]2(C)CCC(OC)[C@@]34C5C[C@@H]6CC[C@@](O)(C5C(=O)O6)[C@@H](C(O)C23)[C@@H]14 (stereo partly specified)	-1%	nt
12	CCN(CC)P(c1n(C)cc[n+]1C)N(CC)CC	-8%	-12%

3 compounds out of the list, sorted by number of heavy atoms, lowest first.
nr	compound	KAT2A inh	FEN1 inh
7	OC(c1ccccc1)(c1ccccc1)C1CCNCC1	-5%	-1%
4	Cc1cccc(C(=O)Nc2ccc3c(c2)CC2(C(=O)N(C)C(=O)N(C)C2=O)C2CCCN32)c1 (stereo unspecified)	?	-22%
2	CCN1C(=O)C(=Cc2c(C)n(CC(=O)NCC3CCCO3)c3ccccc23)C(=O)N(CC)C1=S (stereo unspecified)	-9%	-19%

The list goes on:
(13) CCOC(=O)c1c(/N=C/C2C(=O)NC(=O)NC2=O)sc2c1CCC2
  KAT2A inh: 1% | FEN1 inh: 2%
(14) COc1cc(C(=O)NC(=S)N2C[C@H]3C[C@H](C2)c2cccc(=O)n2C3)cc(OC)c1OC
  KAT2A inh: -3% | FEN1 inh: 10%
(15) C=CCn1c(O)c(C(CC)=NCc2ccc3c(c2)OCO3)c(=O)[nH]c1=O
  KAT2A inh: -2% | FEN1 inh: -21%
(16) C[N+]1(C)CCOC(O)(c2ccc(-c3ccc(C4(O)C[N+](C)(C)CCO4)cc3)cc2)C1 (stereo unspecified)
  KAT2A inh: -2%&-8%&2% | FEN1 inh: ?
(17) CN1C2CCC1CC(OC(=O)c1ccc(Cl)cc1)C2 (stereo unspecified)
  KAT2A inh: -10% | FEN1 inh: 1%
(18) CCOc1ccccc1N1C(=O)CC(=O)NC1=O
  KAT2A inh: -4% | FEN1 inh: -8%
(19) CC(=O)OC1CN2CCC1CC2 (stereo unspecified)
  KAT2A inh: 2% | FEN1 inh: nt
(20) C=CCn1c(O)c(C(C)=NC2CCN(Cc3ccccc3)CC2)c(=O)[nH]c1=O
  KAT2A inh: 0% | FEN1 inh: 5%
(21) COc1ccccc1-n1c(O)c(/C=C2\C=Nc3ccccc32)c(=O)[nH]c1=O
  KAT2A inh: -4% | FEN1 inh: ?
(22) CNC(=O)OCC[N+](C)(C)C
  KAT2A inh: 2% | FEN1 inh: nt
(23) CC(C)COc1ccc(C2(C#N)CC[N+](C)(C)CC2)cc1
  KAT2A inh: -3% | FEN1 inh: 0%
(24) O=c1cccc2n1CC1CNCC2C1 (stereo unspecified)
  KAT2A inh: 2% | FEN1 inh: 3%
(25) NCCc1c[nH]c2ccc(O)cc12
  KAT2A inh: 11µM*! | FEN1 inh: -7%&-2%
(26) Cc1cc(OC(=O)N2CCCCC2)c(C(C)C)cc1[N+](C)(C)C
  KAT2A inh: 46%[activator] | FEN1 inh: nt
(27) CCCC12CN3CC(CCC)(CN(C1)C3c1ccccn1)C2=O (stereo unspecified)
  KAT2A inh: -1%&1% | FEN1 inh: -1%&17%

(28) CCOC(=O)[C@@H]1[C@H]2COc3ccc(Br)cc3[C@H]2N2C(=O)N(c3cccc(C)c3)C(=O)[C@]12C
  KAT2A inh: -8% | FEN1 inh: 8%
(29) O=C1CC(=O)N(Cc2ccccc2)C(=O)N1CCCCCCN1C(=O)CC(=O)N(Cc2ccccc2)C1=O
  KAT2A inh: ? | FEN1 inh: -24%
(30) OC(CNCCc1c[nH]c2ccccc12)c1ccccc1 (stereo unspecified)
  KAT2A inh: -1% | FEN1 inh: -2%
(31) CN1C(CC(O)c2ccccc2)CCCC1CC(O)c1ccccc1 (stereo unspecified)
  KAT2A inh: 0% | FEN1 inh: -1%
(32) c1cnc(N2CCNCC2)nc1
  KAT2A inh: -4% | FEN1 inh: 1%
(33) Cn1cc(C(=O)OCC(=O)NC2(C#N)CCCCC2)c2ccccc21
  KAT2A inh: -18% | FEN1 inh: -4%
(34) Cc1cccc(Cn2cc(C=O)c3ccccc32)c1
  KAT2A inh: 5% | FEN1 inh: -22%
(35) O=C(Nc1ccccc1OC(=O)N1CCOCC1)N1CCOCC1
  KAT2A inh: 0% | FEN1 inh: 0%
(36) CCC(=NCCc1c[nH]c2ccccc12)c1c(O)n(C)c(=O)n(C)c1=O
  KAT2A inh: -3% | FEN1 inh: 2%
